High-throughput results from PubChem BioAssay.
eIF4H inh: human eIF4H binding inhibitors, primary screen, translation initiation inhibitor project, biochemical, uHTS, fluorescence polarization. eIF4H fluorescence polarization binding assay. 0.94% of 290,000 active. AID 2012, 2009. Eukaryotic translation initiation factor 4H (Homo sapiens), Q15056. inhibition, % at 35 µM;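 active = 50% or more with normal probe brightness, or confirmed in later tests; inconclusive = above 50% with abnormal brightness, or retests that disagree; inactive = below 50% or failed in later tests; about a fifth of its hits are not listed in these tables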;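 note: calls also rest on retests at 20 µM and on dose response follow-up; 0% = protein and probe with vehicle and 100% = probe without protein; strong numbers were not always called active; many hits fall short of the cut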
Yeast UUG start: modulators of yeast start codon fidelity, primary screen, whole organism, S. cerevisiae, single point, plate reader; S. cerevisiae UUG-firefly luciferase reporter, luminescence/redox ratio; activity score, % at 18.7 µM; 0.13% of 350,000 active;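 active = replicate mean at a twofold rise or more, about +100% in these data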;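 note: firefly luciferase made from a UUG start codon reports start codon fidelity; reporter light over untreated wells divided by growth signal over untreated wells; some hits fall short of that in this replicate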
MT1-MMP act inh: blockers of MT1-MMP proenzyme processing, primary screen, HT1080 RFP-PRO-GFP cells, GFP/RFP fluorescence | 0.061% of 360,000 active | AID 651647, 2012 | GFP/RFP ratio fluorescence, overnight; percent of plate control window, DMSO zero | GFP/RFP ratio change, % at 20 µM;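 active = GFP/RFP ratio change of at least 30% with cell ATP level not reduced by more than half and red fluorescence within 50% of control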; note: strong numbers were not always called active
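Test system: HT1080 cells expressing an RFP-PRO-GFP fluorescent reporter construct / Compound dosing: single-point 20 µM compound, 1% DMSO / Schedule: cells overnight before dosing, compound overnight, 37 °C, 5% CO2 / Evaluation: GFP/RFP fluorescence ratio / Control set: DMSO and RFP-L50D-GFP cell wells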
Env fusion inh: inhibitors of HIV-1 Env-driven cell-cell fusion, primary screen, HeLa-JRFL effector, CEM21 target cells, luciferase; inhibition, % at 12.3 µM; 1.1% of 360,000 active; AID 651610, 2012;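 active = mean replicate inhibition score of at least 50 and every replicate individually at or above 50; inconclusive = only one of the two criteria met; inactive = mean below 50 and not all replicates reaching 50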;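 note: 0% = plate neutral controls and 100% = maraviroc near 300 nM; one replicate is shown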
CSC inhib: cancer stem cell viability inhibitors, primary screen, luminescence. 1.1% of 300,000 active. cancer stem cell-like cells viability. inhibition, % at 7.5 µM;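 active = mean at 75% or more and at least half the replicates too; inconclusive = mean and replicates disagree; tested in HMLE shEcad cells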;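 note: 0% = median of negative and 100% = median of positive control wells; the first replicate is given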
Rce1 inhib: yeast Rce1p protease inhibitors, primary screen, biochemical, fluorescence, cell-free homogeneous | CAAX prenyl protease 2 (Saccharomyces cerevisiae (strain ATCC 204508 / S288c)), Q03530 | yeast membranes, quenched prenylated peptide cleavage fluorescence | 0.27% of 290,000 active | calls only;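 active = fall in fluorescence gain of 50% or more versus controls, with final raw signal at or below 3038400; inconclusive = same 50% fall but final raw signal above 3038400; inactive = fall in fluorescence gain under 50%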;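 note: plate controls were neutral control wells for no effect and wells lacking membranes for full effect; tested at 10 µM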
Target sequence (Q03530 whole entry, looked up): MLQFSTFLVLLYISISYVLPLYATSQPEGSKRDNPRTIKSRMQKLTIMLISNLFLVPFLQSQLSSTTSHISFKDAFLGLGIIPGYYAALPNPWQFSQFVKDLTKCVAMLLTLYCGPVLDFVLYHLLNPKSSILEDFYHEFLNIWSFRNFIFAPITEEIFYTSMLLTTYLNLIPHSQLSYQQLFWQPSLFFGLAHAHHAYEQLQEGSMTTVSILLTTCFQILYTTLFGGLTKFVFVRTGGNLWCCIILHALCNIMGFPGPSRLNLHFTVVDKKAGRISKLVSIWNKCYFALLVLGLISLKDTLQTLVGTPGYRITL
PABP polyA inh: PABP poly(A) RNA binding inhibitors, primary screen, biochemical, fluorescence polarization, uHTS | Polyadenylate-binding protein 1 (Homo sapiens), P11940 | inhibition, % at 35 µM | 1% of 290,000 active;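 active = 50% or more with normal probe brightness, or confirmed in later tests; inconclusive = above 50% with abnormal brightness, or retests that disagree; inactive = below 50% or failed in later tests; about a fifth of its hits are not listed in these tables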;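 note: calls also rest on retests at 20 µM and on dose response follow-up; controls were probe without protein and protein plus probe with vehicle; some compounds called inactive have numbers as strong as hits; many hits fall short of the cut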
Target sequence (P11940 whole entry, looked up): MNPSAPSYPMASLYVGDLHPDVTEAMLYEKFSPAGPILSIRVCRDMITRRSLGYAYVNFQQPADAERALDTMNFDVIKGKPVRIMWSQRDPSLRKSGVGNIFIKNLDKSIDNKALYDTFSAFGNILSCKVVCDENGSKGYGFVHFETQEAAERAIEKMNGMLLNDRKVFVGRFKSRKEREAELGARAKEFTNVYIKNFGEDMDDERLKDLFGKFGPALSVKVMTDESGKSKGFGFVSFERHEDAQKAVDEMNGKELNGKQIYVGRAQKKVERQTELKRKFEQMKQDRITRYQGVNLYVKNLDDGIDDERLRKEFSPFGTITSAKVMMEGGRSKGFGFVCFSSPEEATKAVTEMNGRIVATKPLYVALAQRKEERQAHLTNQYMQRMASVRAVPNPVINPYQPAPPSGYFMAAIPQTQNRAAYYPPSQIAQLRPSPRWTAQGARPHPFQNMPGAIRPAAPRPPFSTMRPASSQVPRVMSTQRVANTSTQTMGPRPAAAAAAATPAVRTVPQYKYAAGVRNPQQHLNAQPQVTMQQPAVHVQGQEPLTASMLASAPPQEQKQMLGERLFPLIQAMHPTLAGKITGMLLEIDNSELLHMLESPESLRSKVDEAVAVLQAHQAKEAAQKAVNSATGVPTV
MT1-MMP act inh RFP: further read-out of MT1-MMP act inh, marked with its call; RFP signal change, %; measured here: RFP expression control read;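 0 = vehicle wells; hits needed this value within 50% of zero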
Starred values were filed as active, the others as inactive; i = inactive; ? = inconclusive; . = no result given.

Every second line gives: PABP polyA inh, CSC inhib, Env fusion inh, MT1-MMP act inh, Rce1 inhib, MT1-MMP act inh RFP, eIF4H inh, Yeast UUG start
Cc1ccc(CS(=O)Cc2ccc(C(=O)NCc3ccccc3)o2)cc1 (stereo not drawn)
  3, 10, 9, 2, i, 4, -2, -15
CCn1c(CSc2ncn[nH]2)nc2cc(C(=O)O)ccc21
  16, -3, 4, 2, i, 4, 18, .
Cc1ccc(NC(=O)CSCC(=O)N2CCCc3ccccc32)cc1
  ., -9, -9, 3, i, 1, ., .
CC(Sc1nnc(-c2cccs2)n1-c1ccccc1)C(=O)NCc1ccc2c(c1)OCO2 (stereo not drawn)
  1, -3, ., 2, i, -5, -4, -9
CC1(C)CC(NC(=O)C(F)(F)F)CC(C)(C)N1OC(=O)c1ccco1
  6, 4, -21, 3, i, 1, -9, -15
C=CCNC(=S)N(Cc1ccccc1)Cc1ccc(F)cc1
  11, 0, -7, -2, i, -3, -5, .
Cc1ccc(N2C(=O)C(Cl)=C(N3CCCCCC3)C2=O)cc1
  -2, -4, -1, -1, i, -8, -4, 2
COc1ccccc1N(Cc1ccccc1)S(=O)(=O)c1cccc(C(=O)Nc2cc(C)ccn2)c1
  3, 32, 29, -3, i, -3, -3, -75
C[C@H](NC(=O)[C@H](Cc1ccccc1)n1c(=O)[nH]c2ccccc2c1=O)C(=O)N1CCC[C@H]1C(=O)O
  0, -7, ., 0, i, 1, 46, 16
Cc1cc2cc(CNC(=O)Nc3cccc(Cl)c3)ccc2n1C
  -6, 4, 7, 30, i, 55, 46, -14
Cc1c(C)c2ccc(OC3CCCCC3=O)cc2oc1=O (stereo not drawn)
  8, -13, -81, 2, i, 0, 0, -3
CS(=O)(=O)Nc1ccc(C(=O)NCCSCc2ccco2)cc1
  -5, 11, ., 3, i, 0, -11, -11
FC(F)(F)Oc1ccc(NC(=S)NCc2ccccc2)cc1
  -11, 17, -4, 2, i, 1, -14, -15
O=C1NCCCC2c3c(cc(Br)c(O)c3Br)OC12N1CCCCC1 (stereo not drawn)
  12, -10, ., -4, i, 2, -9, -10
Cc1cccc(N2C(=O)CC(N(C(=O)c3ccco3)c3cccc(C)c3)C2=O)c1 (stereo not drawn)
  -2, -19, 1, 0, i, 3, 2, .
C=CCOc1cccc(/C=N/NC(=O)C(OC)c2ccccc2)c1 (stereo not drawn)
  -4, 5, 11, 0, i, -3, -11, -12
COc1ccc(CNC(=O)CCC(=O)n2ncc3cc(C)ccc32)cc1
  -7, -16, -2, -2, i, 0, 5, 2
O=C(Nc1ccccc1N1CCN(C(=O)c2ccc(Cl)cc2)CC1)c1cccc([N+](=O)[O-])c1
  3, 10, ?, -2, i, -4, 7, -5
CCOC(=O)CNC(=O)C(CC(N)=O)NC(=O)OC(C)(C)C (stereo not drawn)
  7, -9, 11, 0, i, 2, 9, -21
CCN(CC)S(=O)(=O)c1ccc2[nH]c(=O)[nH]c2c1
  2, -7, -47, 0, i, 1, -3, 1

Next section, overlapping the part above by 2 compounds.
Every second line gives: PABP polyA inh, CSC inhib, Env fusion inh, MT1-MMP act inh, Rce1 inhib, MT1-MMP act inh RFP, eIF4H inh, Yeast UUG start
CCOC(=O)CNC(=O)C(CC(N)=O)NC(=O)OC(C)(C)C (stereo not drawn)
  7, -9, 11, 0, i, 2, 9, -21
CCN(CC)S(=O)(=O)c1ccc2[nH]c(=O)[nH]c2c1
  2, -7, -47, 0, i, 1, -3, 1
Cc1noc(C)c1S(=O)(=O)N1CCCC(C(=O)Nc2ccc(Cl)cn2)C1 (stereo not drawn)
  -4, -8, ., 7, i, -12, 2, -3
COCCNC(=O)[C@@H]1CCCN1S(=O)(=O)c1cccc2cccnc12
  ., 3, 9, 4, ., 7, ., -14
CCOC(=O)c1c(C)[nH]c(/C(C)=N/O)c1C
  0, -7, ., 9, i, -6, 7, -5
COc1ccc(CSc2cccc3cccnc23)cc1[N+](=O)[O-]
  -6, -10, 2, 4, i, 2, 3, .
CN(CC1COCCO1)c1nc2nonc2nc1N1CCSCC1 (stereo not drawn)
  -5, -5, 5, -1, i, 1, -7, .
O=[N+]([O-])c1ccc(Nc2nc(N/N=C\c3ccc4c(c3)OCO4)nc(N3CCCCC3)n2)cc1
  -2, 11, -18, -1, i, -9, 4, -26
O=[n+]1c2c(n([O-])c3cc(F)ccc31)CCCC2
  0, ., -58, 5, i, 9, 3, -13
OC1CCCN(CC(O)COC(c2ccc(F)cc2)c2ccc(F)cc2)C1 (stereo not drawn)
  -3, -18, 5, 3, i, 1, 7, -4
CCOC1CC(C)(C)NC(=S)N1 (stereo not drawn)
  4, -14, -1, 3, i, 4, 0, -15
NC(=O)C1CCN(CC(=O)Nc2ccc(S(=O)(=O)N3CCOCC3)cc2)CC1
  -6, -10, 18, 1, i, 1, 0, -23
OC[C@@H]1CN(Cc2ccncc2)C[C@H](n2cnc3c(NC4CCCC4)ncnc32)O1
  ., ., 3, -3, ., 2, ., -2
C=C(C)CN(CC)Cc1c(C(=O)N(C)CCCC)nc2ccccn12
  -4, 0, 9, 0, i, 1, -14, -12
Cc1cccc(N2CC(C(=O)Nc3nnc(SCc4cccnc4)s3)CC2=O)c1 (stereo not drawn)
  10, -8, -18, 0, i, 3, 37, -5
Cn1c(=O)[nH]c(=O)c2[nH]c(N(Cc3ccccc3)Cc3ccccc3)nc21
  -4, 12, ., 6, ., 5, 0, -3
O=C(Nc1cc([N+](=O)[O-])ccc1Cl)C(Sc1ccccc1)c1ccccc1 (stereo not drawn)
  -6, 22, 38, -7, i, -4, -3, .
COc1cccc(-c2noc(C3CCCN(C(=O)c4cccc(F)c4)C3)n2)c1 (stereo not drawn)
  8, -3, -13, -2, i, -4, -3, 3
Cn1c(C(=O)NCCC2=CCCCC2)cc2c(=O)n3ccccc3nc21
  0, -11, -44, 8, ., 9, -14, -12
CC(=O)NNc1ccc(C(F)(F)F)cc1[N+](=O)[O-]
  -10, -2, ., -1, i, 4, 0, -8
CCOC(=O)c1c(C)n(C)c2ccc(OC)c(NS(=O)(=O)CC)c12
  -15, 3, ., 2, i, 3, -8, 0
CC(=O)c1ccc(NS(=O)(=O)c2ccc(C)cc2)cc1
  -3, -13, -286, 1, i, 0, -4, -17
CC1CCCN(CCSc2ccc(Cl)cc2)C1 (stereo not drawn)
  13, 32, 16, 3, i, 3, -1, .
CC1CCCCN1C(=O)c1ccc(C(=O)N2CCCCC2C)cc1 (stereo not drawn)
  -4, ., -17, -9, i, -1, -1, -2
CC1CC(C)CN(C(=O)COC(=O)c2ccc(N3CCCC3=O)cc2)C1 (stereo not drawn)
  ., -21, ., 0, ., 1, ., 2
O=C1CCC(Cc2ccccc2)N1 (stereo not drawn)
  8, -12, ., -3, i, -2, 8, -10
CCCc1cc(C(=O)NCC(C)C)no1
  -10, 12, -10, 4, i, 4, 12, -4
Cc1cccc(NC(=O)c2ccc(CN3CCc4ccccc4C3)cc2)c1C
  -6, 35, 29, -2, i, -11, -7, .
CCOc1cccc2cc(C(=O)NCc3ccc(F)cc3)c(=N)oc12
  -7, -5, -10, -1, i, 2, -10, -9
COc1ccc(S(=O)(=O)N2CCCCCC2)cc1C(=O)Nc1cc(C)ccn1
  ., 11, 14, -7, ., -2, ., -23
COc1cccc(/C=N/Nc2ccccc2C(=O)O)c1O
  11, -2, -50, 0, i, -1, -6, -12
COc1ccc(OC)c(S(=O)(=O)N2CCN(C34CC5CC(CC(C5)C3)C4)CC2)c1
  -7, 59, ., 3, i, 6, 1, 6
COc1cccc(NC(=O)c2cccc(C(=O)Nc3cccc(OC)c3)n2)c1
  -3, -5, ., 2, i, -3, -3, -16
CCc1nnc(SCc2ccc([N+](=O)[O-])cc2)nc1CC
  ., 10, 9, 1, i, -1, ., -3
Cc1ccccc1C(C(=O)NC1CCCCC1)N(C(=O)CNC(=O)c1ccco1)c1cccnc1 (stereo not drawn)
  -7, 1, 27, 3, i, 5, 6, .
COc1ccc(C(=O)C[n+]2ccc(-c3nnc4n3CCC4)cc2)cc1
  7, ., 3, 3, i, 1, -10, .
O=C(OCc1nc2scc(-c3ccccc3)c2c(=O)[nH]1)c1cc(Cl)ccc1[N+](=O)[O-]
  5, -12, -12, 6, i, 3, -10, .
S=C(NCCc1ccccc1)N1CCN(Cc2ccc(Cl)c(Cl)c2)CC1
  2, 23, ., 3, i, -4, -8, .
CC(C)CCNC(=O)CNC(=O)c1cccs1
  -7, 1, -43, -2, i, -2, 2, -2
CCCC1(C(=O)O)NC(c2ccccc2O)C2C(=O)N(c3cccc(Cl)c3)C(=O)C21 (stereo not drawn)
  8, 0, -1, -1, i, 3, -2, 3
COc1ccc(C(C)C)cc1S(=O)(=O)Nc1cccnc1
  ., ., -1, 1, ., 5, ., 6
COc1ccccc1CN(Cc1cc2c(C)ccc(C)c2[nH]c1=O)Cc1nnnn1Cc1ccco1
  1, 26, ., -14, i, -13, 11, 10
NC(=O)c1ccsc1NC(=O)CN1C(=O)NC2(CCCC2)C1=O
  ., -9, ., 0, ., 0, ., -10
COCCN(C(=O)CNC(=O)c1cccs1)C(C(=O)NC1CCCCC1)c1ccco1 (stereo not drawn)
  -9, ., -123, -3, ., 7, -8, 4
COc1ccc(C(NC(C)=O)c2ccc3cccnc3c2O)c(OC)c1 (stereo not drawn)
  -10, 45, ., 7, i, -5, 19, -35
Cc1cc(NS(=O)(=O)c2ccc(NC(=O)CCCC(=O)O)cc2)nc(C)n1
  25, 4, ., -2, i, 5, 4, 0
CCOc1ccc(CNCCCSc2ncccn2)cc1
  15, -10, 0, 2, i, 4, -12, -12
CC(C)[C@H](NC(=O)c1ccco1)C(=O)OCC(=O)Nc1cccc(F)c1
  5, -4, -5, 3, i, -2, 6, .
COc1ccc(N2CCN(CCNC(=O)CCCn3c(=O)[nH]c4cc(Cl)ccc4c3=O)CC2)cc1
  -13, -11, ., -1, i, -2, 3, .
COc1cccc(NC(=O)CN(C)C(=O)c2ccc3c(c2)C(=O)N(CCC(C)C)C3=O)c1
  ., -21, 5, 7, ., -14, ., -23
O=c1oc(-c2ccccc2NS(=O)(=O)c2ccc(F)cc2)nc2ccccc12
  17, 6, 12, 3, i, 5, -8, 0
COc1cc([N+](=O)[O-])ccc1NC(=O)CCN1C(=O)C2C3CCC(C3)C2C1=O (stereo not drawn)
  -10, -11, ., 2, i, 5, -5, -13
NC(=O)c1ccccc1NCC(=O)c1ccc(Cl)cc1
  33, 1, -2, 3, i, 5, -9, -25
CCOC(=O)CSc1cc(C)nc(N)n1
  1, 4, -25, 6, i, 9, -2, -16
CC(=O)c1cccc(NC(=O)Oc2ccccc2)c1
  -10, -1, -2, -3, ., 5, -7, -7
Cn1c(=O)cc(SCC(=O)N2CCN(Cc3ccc4c(c3)OCO4)CC2)c2ccccc21
  -13, -13, 12, 4, i, 4, -3, -13
CC(=O)c1cccc(NC(=O)C2CCCN(S(=O)(=O)c3ccc(F)cc3)C2)c1 (stereo not drawn)
  -3, 1, ., 0, i, 0, -1, -3
COc1cccc(NC(=O)CN(C)C(=O)CCCc2c[nH]c3ccccc23)c1
  ., -13, 14, 4, ., -4, ., 11
Cc1ccc(C)c(NC(=O)CCC(=O)OC(C(=O)c2ccccc2)c2ccccc2)c1 (stereo not drawn)
  -3, 0, 0, -1, i, 3, -5, 4

Not all compounds are listed; count on the stated rates, not on these rows.
